Source: PubChem (National Center for Advancing Translational Sciences (NCATS))
miR-21 FLuc = raises the signal of a miR-21 reporter; HeLa miR-21 FLuc reporter, luciferase, 48 h; Potency, µM (highest dose often 38.3 µM), for the others: at the highest dose reporter change, positive = more light; 340,000 tested, under 10 active; AID 2288; active = well fitted rising curve with a large enough effect; inconclusive = small, poorly fitted or top-dose-only effect; inactive = no such curve, though single readings can be large or run the other way;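 note: % of control where 0% means no effect; miR-21 action dims this reporter so a rising signal means less miR-21 action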
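Compounds were titrated across several concentrations (up to approximately 40 uM) and incubated 48 hours with HeLa miR-21-FLuc reporter cells (miR-21 target sequence downstream of FLuc, endogenous miR-21). Readout was firefly luciferase luminescence after lytic detection reagent.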
An asterisk follows results filed as active; ? = inconclusive; [ ] = dose if it differs, or a comment.

SMILES	miR-21 FLuc
CCc1ccc(-n2nc(C)c3c(C(=O)N4CCN(c5cccc(Cl)c5)CC4)cc(C)nc32)cc1	17%
CCOC(=O)c1sc(NC(=O)c2cc3nc(-c4ccccc4)cc(C(F)(F)F)n3n2)c(C(=O)OCC)c1C	-3%
Cc1cccc(-c2noc(-c3cc(-c4ccc(F)cc4)n[nH]3)n2)c1	-7%
Cc1ccc(Cl)cc1N1CCN(C(=O)c2cn(C)c3ccc(S(=O)(=O)N4CCC(C)CC4)cc3c2=O)CC1	-1%
CN1CCc2c(sc3c2C(=O)NC(c2ccc(OC(=O)c4ccc(C(C)(C)C)cc4)cc2)N3)C1 (centres undefined)	9%
COc1cccc(C(=O)Nc2c(C(=O)c3ccc(F)cc3)oc3ccccc23)c1	-1%
COc1ccc(NCc2cc3ccc(OC)cc3n(CC(=O)Nc3cc(Cl)ccc3C)c2=O)cc1	-1%
COc1ccc2c3c(c(=O)oc2c1)C1O[C@](CCCCN2C(=O)c4ccccc4C2=O)(Cc2cc(OC)c(OC)cc21)O3	1%[7.66 µM]
CC(=O)c1cccc(NC(=O)c2ccc3nc(C(C)C)oc3c2)c1	-11%
N#C/C(=C\c1ccc(Cl)cc1)C(=O)NCC1CCCO1 (centres undefined)	1%
CCOC(=O)c1c(NC(=O)COc2cccc(C(F)(F)F)c2)sc2c1CCCCC2	4%
CC(C)CCNC(=O)c1ccc2c(c1)N(Cc1cccc(Cl)c1)C(=O)c1ccccc1S2	-1%
Cc1ccc(C)c(NC(=O)Cn2cnc3nc4c(cc3c2=O)CCCC4)c1	-2%
COCCn1c(C)cc(O)c(C(c2ccccc2OC)N2CCN(c3ccccc3)CC2)c1=O (centres undefined)	3%
O=C(CSc1nc2c([nH]c3ccccc32)c(=O)n1-c1cccc(C(F)(F)F)c1)N1CCc2ccccc21	-1%
CC(=O)N1CCC2(CC1)OC(=O)C(C)=C2C(=O)NCc1ccc(Cl)cc1	-3%
COc1cc(Cl)c(C)cc1NC(=O)c1cnc2c(-c3cccc(C)c3)c(C)nn2c1C	0%
CCC(=O)N1c2ccccc2C(C)(c2ccccc2)CC1(C)C (centres undefined)	12%
CCOc1ccc(OCC(=O)NCCS(=O)(=O)N2CCN(c3ccc(OC)cc3)CC2)cc1	-2%
CCc1ccc(S(=O)(=O)c2cn(C)c3ccc(C)cc3c2=O)cc1	-4%
Cc1ccc(CNC(=O)c2ccc(CS(=O)(=O)Cc3ccc(F)cc3)o2)cc1	5%
CC(=O)Nc1ccc(Nc2c(CCC(C)C)c(C)c(C#N)c3nc4ccccc4n23)cc1	-1%
COc1ccc(S(=O)(=O)NCCc2sc(-c3cccnc3)nc2C)cc1OC	-6%
COc1ccc(-c2noc(CSc3nnc(-c4ccncc4)n3-c3ccccc3)n2)cc1	28%
Cc1ccc(CNC(=O)Cn2c3ncccc3c(=O)n2-c2ccc(C)cc2)cc1	-6%
CC(C)(C)C1CCc2oc3ccc(NS(=O)(=O)c4cc(Cl)ccc4Cl)cc3c2C1 (centres undefined)	-6%
CN1C(=O)c2ccccc2Sc2ccc(NC(=O)N3CCN(c4ccccc4)CC3)cc21	-5%
COC(=O)c1cc(NC(=O)Cn2ncc3c([nH]c4ccccc43)c2=O)cc(C(=O)OC)c1	2%
O=C(CSc1nc2ccsc2c(=O)n1-c1ccc(Br)cc1)NCc1ccc(Cl)cc1	1%
COC(=O)c1ccccc1NC(=O)c1cc(CN2CCCC2)on1	-16%
CCC(Cc1ccccc1)NC(=O)CCS(=O)(=O)c1cc2c(cc1Cl)NC(=O)CO2 (centres undefined)	-1%
COc1ccc(OCC(=O)Nc2ccc(-c3nc4cc(Cl)ccc4o3)cc2)cc1	-65%
Cc1ccc2c(c1)-c1c(cnn1CC(=O)N1CCN(c3cccc(C(F)(F)F)c3)CC1)CO2	3%
Cc1ccc2c(c1)c1c(c(=O)n(-c3cccc(Cl)c3)c(=O)n1CC(=O)NCC1CCCO1)n2C (centres undefined)	-2%
COc1ccccc1CNC(=O)CCc1c(C)c2cc3c(C)coc3cc2oc1=O	-2%
NCCc1nc2cccnc2n1-c1ccccc1	-2%
CC(=O)c1ccc(NC(=O)Cn2nc(C(F)(F)F)c3c2CCC3)cc1	-27%
COc1ccc(C(=O)NCc2cn3ccc(C)cc3n2)cc1	-8%
O=C(NCC(c1cccnc1)N1CCc2ccccc21)c1ccc(Cl)cc1 (centres undefined)	-3%
Cc1nc2c(-c3ccccc3)c(C)nn2c(C)c1CCC(=O)N1CCN(c2ccccc2)CC1	0%
CCc1ccc(NC(=O)Cn2c(=O)n(-c3ccccc3)c(=O)c3ccc(C(=O)NCc4ccc5c(c4)OCO5)cc32)cc1	-6%
COc1cc2c(cc1OC)C(COc1ccc3c(C)cc(=O)oc3c1)N(C(=O)c1ccc(C)cc1)CC2 (centres undefined)	11%
COc1ccc(OC)c(S(=O)(=O)NCCc2sc(-c3cccnc3)nc2C)c1	-5%
O=C(Nc1cccc(Cl)c1)N1Cc2ccccc2Oc2ncccc21	1%
CCOc1ccc(NC(=O)CN2CCN(CC(=O)Nc3ccccc3OCC)CC2)cc1	9%
Cc1cccc(CC(=O)NC2CC(=O)N(c3ccc4c(c3)OCCO4)C2)c1 (centres undefined)	-2%
Nc1nonc1C(=O)NCCNCc1cccc(Cl)c1Cl	-9%
Cc1ccccc1OCC(=O)Nc1nnc(S(=O)(=O)N(C)c2ccccc2)s1	-54%
COC(=O)c1cc(C)nc2c1c(=O)nc(SCc1cccc(C)c1)n2C1CC1	-10%
COc1ccc(CCn2c3c(c(=O)[nH]c2=O)C(NC(=O)c2ccccc2)(C(F)(F)F)C(=O)N3)cc1OC (centres undefined)	0%

Look-ups from above.
Under miR-21 FLuc, CCc1ccc(NC(=O)Cn2c(=O)n(-c3ccccc3)c(=O)c3ccc(C(=O)NCc4ccc5c(c4)OCO5)cc32)cc1 is entered as -6%
Under miR-21 FLuc, COc1ccc(CCn2c3c(c(=O)[nH]c2=O)C(NC(=O)c2ccccc2)(C(F)(F)F)C(=O)N3)cc1OC (centres undefined) is entered as 0%

Another view of some results above:
| Structure | miR-21 FLuc |
| --- | --- |
| Cc1cccc(CC(=O)NC2CC(=O)N(c3ccc4c(c3)OCCO4)C2)c1 (centres undefined) | -2% |
| Nc1nonc1C(=O)NCCNCc1cccc(Cl)c1Cl | -9% |
| Cc1ccccc1OCC(=O)Nc1nnc(S(=O)(=O)N(C)c2ccccc2)s1 | -54% |
| COC(=O)c1cc(C)nc2c1c(=O)nc(SCc1cccc(C)c1)n2C1CC1 | -10% |
| COc1ccc(CCn2c3c(c(=O)[nH]c2=O)C(NC(=O)c2ccccc2)(C(F)(F)F)C(=O)N3)cc1OC (centres undefined) | 0% |

Continuation.
SMILES	miR-21 FLuc
Cc1ccc(CNC(=O)COCc2cc(-c3cccs3)on2)cc1	-10%
CCOC(=O)C1CCN(C(=O)c2cc3ccc4cccnc4c3[nH]2)CC1	-49%
COc1ccccc1NC(=O)CCN1CCCCC1	-4%
CN(CC(=O)NCc1ccccc1Cl)S(=O)(=O)c1ccc2c(c1)c(=O)n(C)c(=O)n2C	-4%
CCCCNC(=O)C(CC)Sc1nc2ccccc2c(=O)n1Cc1ccco1 (centres undefined)	12%
CC(C)(C)OC(=O)N1CCC(c2c(C(=O)NCCN3CCOCC3)cnn2-c2ccccc2)CC1	-1%
CC1CCc2c(sc(NC(=O)c3cc(-c4ccc(Br)cc4)on3)c2C(N)=O)C1 (centres undefined)	-14%
CCOc1ccc(NC(=O)Cn2c(=O)n(CCCCCC(=O)NCc3ccccc3)c(=O)c3sccc32)cc1	-2%
Cc1ccc(NC(=O)Cn2c(=O)n(CCC(=O)NCCc3ccccc3)c(=O)c3ccccc32)cc1	-1%
N#Cc1ccccc1Cn1c(=O)n(CCCCC(=O)NCc2ccc3c(c2)OCO3)c(=O)c2ccccc21	1%
O=C(Cc1ccccc1)Nc1c(C(=O)Nc2ccccc2F)oc2ccccc12	-8%
Cc1ccc2c(c1)C(=O)OC(C(=O)Nc1ncc(Cc3ccccc3)s1)C2 (centres undefined)	-4%
CCCC(=O)N(c1ccc2oc(C)c(C(C)=O)c2c1)S(=O)(=O)c1ccc(CC)cc1	24%
CCOC(=O)c1cc2c(=O)n3ccccc3nc2n(CC(C)C)c1=NC(=O)C(C)(C)Oc1ccc(Cl)cc1	6%
Cc1ccc(-c2cnc(C3CC3)o2)cc1S(=O)(=O)Nc1ccc(F)cc1Cl	5%
Cc1cccn2c(=O)c3cc(C#N)c(=O)n(-c4nnc(SCc5ccc(F)cc5)s4)c3nc12	-5%
COc1ccc(CCNC(=O)CSc2cn(CCNC(=O)c3cccc(C(F)(F)F)c3)c3ccccc23)cc1OC	?
CCc1ccccc1NC(=O)CCn1cccn1	-3%
COc1ccc([C@]23Cc4ccccc4C(O2)C2=C(CCCC2=O)O3)cc1	-8%[7.66 µM]
Cc1ccc(-c2nc(S(=O)(=O)c3ccc(C)cc3)c(N3CCCCCC3)o2)cc1	-4%
CCOC(=O)N1CCc2c(sc(NCc3sccc3C)c2C(=O)Nc2ccccc2OCC)C1	8%
Cc1ccc(-n2ncc3c(Nc4cccc(Cl)c4)ncnc32)c(C)c1	-18%
Cc1ccc(CN2C(=O)c3ccccc3C2C(=O)NC2CCCCCC2)cc1 (centres undefined)	-6%
Cn1c(=O)[nH]c2cc(-c3noc(-c4ccc(F)cc4)n3)ccc21	-59%
COC(=O)c1ccc(NC(=O)CCc2c(C)nc3c(c(C)nn3-c3ccc(C)cc3)c2C)cc1	-1%
COc1ccccc1CCNC(=O)Cn1ccc2cc(S(=O)(=O)N3CCCCCC3)ccc21	11%
COc1cccc(/C=C/c2onc(C)c2S(=O)(=O)N2CCC(C(=O)N3CCCCC3)CC2)c1	1%
CCOc1ccc(NC(=O)Cn2c(=O)cc(C)c3c(C)nn(C)c32)cc1	4%
CCOc1ccc2oc(=O)cc(CN3CCN(c4ccccc4OC)CC3)c2c1	-2%
CCC1CCCCN1S(=O)(=O)c1ccc(NC(=O)c2nc(SC)ncc2Cl)cc1 (centres undefined)	26%
Cc1ccc(-c2nc3scc(CCNS(=O)(=O)c4ccc(C)c(C)c4)n3n2)cc1	-1%
O=C(Nc1ccc(F)cc1)c1oc2ccccc2c1NC(=O)C12CC3CC(CC(C3)C1)C2	1%
NC(=O)c1cc(S(=O)(=O)NCC2CCC(C(=O)Nc3cccc(Cl)c3)CC2)cs1 (centres undefined)	2%
O=C(COCc1cc(-c2cccs2)on1)Nc1cc(Cl)ccc1O	3%
COc1ccc2c(c1)c(N1CCCC1=O)c(C(=O)Nc1ccc(OC)c(Cl)c1)n2C	20%
Cc1ccc(N2C(=O)CS(=O)(=O)C23C(=O)N(Cc2ccc(Cl)cc2)c2ccccc23)cc1C (centres undefined)	-1%
O=C(c1cccc(Cl)c1)N1c2nc(-c3ccco3)nn2C2(CCCCC2)[C@@H]2CCCC[C@@H]21	-7%
COC(=O)c1ccccc1NC(=O)c1sc2nc(C)cc(C)c2c1NC(=O)c1ccccc1OC	-1%
Cc1cc(C)n(C(C)CC(=O)NCc2ccccc2C)n1 (centres undefined)	0%
CCc1cccc(NC(=O)CCn2nc(C)cc2C)c1	-12%

Next section; it opens with the 4 that closed the last part.
SMILES	miR-21 FLuc
O=C(c1cccc(Cl)c1)N1c2nc(-c3ccco3)nn2C2(CCCCC2)[C@@H]2CCCC[C@@H]21	-7%
COC(=O)c1ccccc1NC(=O)c1sc2nc(C)cc(C)c2c1NC(=O)c1ccccc1OC	-1%
Cc1cc(C)n(C(C)CC(=O)NCc2ccccc2C)n1 (centres undefined)	0%
CCc1cccc(NC(=O)CCn2nc(C)cc2C)c1	-12%
COc1cccc(CNC(=O)c2c(C)oc3nc(C)nc(N4CCOCC4)c23)c1	-11%
COc1cc(OC)cc(-c2nc3nc(C)c(CCC(=O)Nc4ccc(C)cc4C)c(C)n3n2)c1	2%
CSc1ncc(C(=O)N2CCN(c3cccc(C(F)(F)F)c3)CC2)c(C)n1	-4%
CCn1c2c(c(=O)n3ncc(C(=O)Nc4cc(Cl)ccc4OC)c13)CN(Cc1ccc(OC)cc1)CC2	1%
CCCCCn1c(CCCNC(=O)c2cccc(C)c2)nc2ccccc21	22%
Cc1ccc(F)cc1NC(=O)CCSc1nc(-c2ccco2)cc(C(F)(F)F)n1	-10%
Cn1c(=O)n(C)c2cc(N3CCCCC3)c(NC(=O)c3ccc(C(C)(C)C)cc3)cc21	-2%
COc1ccc(S(=O)(=O)N2CCN(c3cccc(C)c3C)CC2)c2ccccc12	-2%
O=C(NCCc1ccc(Cl)cc1)c1ccc(Nc2nc3ccccc3n3nnnc23)cc1	1%
O=C(c1ccc(Nc2nc3ccccc3n3nnnc23)cc1)N1CCN(c2cccc(C(F)(F)F)c2)CC1	1%
COc1cccc(CNC(=O)c2ccc3c(c2)nc2n3CCC(C)C2)c1OC (centres undefined)	-22%
CN(C)CCCN(C(=O)c1ccc2c(c1)OCCO2)c1nc2ccccc2s1	-91%
Cc1ccccc1CSc1nc(-c2cccc(F)c2)nc2c1Cc1c(CO)cnc(C)c1O2	0%
Cc1cc(C)c(OCC(=O)Nc2ccc(N3CCOCC3)cc2)c(Br)c1	-2%
Cc1nn(-c2ccccc2)c(OC(=O)c2ccccc2Cl)c1S(=O)(=O)c1ccccc1	-3%
O=C(Cn1c(=O)n(CCCS(=O)(=O)C2CCCCC2)c(=O)c2ccccc21)Nc1ccc(F)c(Cl)c1	-1%
Cc1ccc(C)c(NC(=O)CSc2nc(=O)n(Cc3ccncc3)c3c2CCC3)c1	3%
CCc1ccc(C(=O)c2cn(CC(=O)Nc3cccc(C)c3C)c3nc(C)ccc3c2=O)cc1	9%
CC(=O)N1CCOc2cc(S(=O)(=O)NCc3ccccc3Cl)c(Cl)cc21	-3%

A second format for two compounds above.
structure | miR-21 FLuc
Cc1nn(-c2ccccc2)c(OC(=O)c2ccccc2Cl)c1S(=O)(=O)c1ccccc1 | -3%
CC(=O)N1CCOc2cc(S(=O)(=O)NCc3ccccc3Cl)c(Cl)cc21 | -3%

A portion of the library; count on the stated rates, not on these rows.
